SARS PLpro yeast – SARS-CoV PLP inhibition in yeast | S. cerevisiae expressing SARS-CoV PLpro, growth rescue; control for the full effect not named in the record | 0.19% of 330,000 active | Potency, µM (doses to about 32.9 µM), inactives show at the highest dose activity, positive = growth rescue; also: 0% is about no effect; nearly all actives have a fitted effect of over 55% in size; growth read by luminescence after 48 h
MARV entry inh – inhibitors of Marburg virus binding or cell entry; Potency, µM (titrated, usually from 37.8 µM), without a hit: top-dose activity change, negative = inhibition, most hits filed as inhibitors; Marburg virus pseudotyped entry inhibition, cell reporter; control for the full effect not named in the record; about a third of the inactives were read at about 46 µM; 1.8% of 300,000 active; AID 540276; active = well fitted inhibition curve with a large enough effect; inconclusive = small, poorly fitted or top-dose-only effect, or effect the other way; inactive = flat fitted curve, though single readings scatter; tested in HEK293 cells; about a fifth of its hits are not listed in these tables; also: % is scaled to controls: 0 for no effect and ±100 for the full control effect; luciferase read-out
RE007 growth inh – less growth of the S. pombe RE007 Vpr strain | S. pombe RE007 Vpr strain, BacTiter-Glo ATP luminescence, 24 h; control for the full effect not named in the record | Potency, µM (series often up to 92.2 µM), inactives show at the top dose activity change, negative = less growth | 0.21% of 360,000 active; active = well fitted falling curve with a large enough effect; inconclusive = small, poorly fitted or top-dose-only effect; inactive = no such curve, though single readings can be large or run the other way;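 also: % is scaled to controls: 0 for no effect and ±100 for the full control effect; nearly all actives have a fitted effect of over 50% in size; the assay follows cell death caused by Vpr and the record does not say whether a fall means rescue or toxicity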
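Fission yeast RE007 carrying one integrated HIV-1 vpr copy, seeded at OD 0.01 in PMG+AL medium with 23 nL pinned compound. Grown 24 h at 30 degrees; viability read by BacTiter-Glo luminescence after 5 min.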
StopGo reporter – FMDV 2A StopGo reporter, luciferase signal. Potency, µM (top dose mostly 57.9 µM), inactives show top-dose signal change, negative = less light. 1.2% of 410,000 active. human cells with a luciferase reporter of 2A StopGo recoding; control for the full effect not named in the record; active = well fitted falling curve with a large enough effect; inconclusive = small, poorly fitted or top-dose-only effect; inactive = no such curve, though single readings can be large or run the other way; tested in HEK293T cells; also: % is scaled to controls: 0 for no effect and ±100 for the full control effect; nearly all actives have a fitted effect of over 45% in size; luciferase light after 4 h
NS1 function inh – blocks influenza NS1 protein function | Potency, µM (doses to about 46.1 µM), for inactives: at the top dose activity, positive = more growth | AID 2326 | 0.4% of 270,000 active | S. cerevisiae slowed by influenza A NS1, growth recovery by OD600; also: actives are rising curves; nearly all actives have a fitted effect of over 50% in size
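S. cerevisiae expressing influenza A NS1, grown in glucose, washed, then diluted 1:100 into pH 6.0 -URA galactose medium with 23 nl compound. Growth recovery read as OD600; NS1-free strain serves as control.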
Lassa entry inh – inhibitors of Lassa virus binding or cell entry | Lassa virus pseudotype entry inhibition, cell reporter; control for the full effect not named in the record | Potency, µM (highest dose often 37.9 µM), for the others: at the highest dose activity change, negative = inhibition, actives largely listed as inhibitors | 1.2% of 300,000 active | AID 540256; active means well fitted inhibition curve with a large enough effect; inconclusive means small, poorly fitted or top-dose-only effect, or effect the other way; inactive means flat fitted curve, though single readings scatter; tested in HEK293 cells; also: % is scaled to controls: 0 for no effect and ±100 for the full control effect; nearly all actives have a fitted effect of over 50% in size; luciferase read-out
Cruzain Triton – blocks cruzain activity in presence of Triton detergent; purified cruzain, Z-FR-AMC fluorescence, 0.01% Triton; Potency, µM, inactives show max response, negative = inhibition, most hits filed as inhibitors; 0.43% of 200,000 active; active = well fitted curve in the direction sought with a large enough effect; inconclusive = small, poorly fitted or top-dose-only effect, or another doubt; inactive = no such curve, though single readings can be large; an effect the other way counts as inactive or inconclusive;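 also: plate controls were neutral wells for no effect and buffer without enzyme for full effect; nearly all actives have a fitted effect of over 40% in size; top concentration of the series not given in the record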
Target sequence (P25779 123-467 limits assumed): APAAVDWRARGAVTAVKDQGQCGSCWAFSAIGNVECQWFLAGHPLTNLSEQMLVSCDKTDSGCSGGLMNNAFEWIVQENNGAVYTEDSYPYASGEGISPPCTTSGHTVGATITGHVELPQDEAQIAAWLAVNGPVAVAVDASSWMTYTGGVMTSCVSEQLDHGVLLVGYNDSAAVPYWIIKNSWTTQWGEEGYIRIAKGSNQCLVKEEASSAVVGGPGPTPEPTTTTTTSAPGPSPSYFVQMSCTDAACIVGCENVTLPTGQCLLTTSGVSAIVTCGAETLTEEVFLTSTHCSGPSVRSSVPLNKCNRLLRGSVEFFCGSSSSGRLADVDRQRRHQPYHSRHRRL
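Steps: dispense cruzain (1.5 nM final) in acetate buffer pH 5.5 with DTT and 0.01% Triton X-100; pin-transfer compounds; incubate 15 min RT; add Z-FR-AMC (2 uM final); read fluorescence every 30 s, using the 60 s intensity change.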
Cruzain inh noDet – cruzain (T. cruzi) inhibition without detergent; P25779; purified cruzain, Z-FR-AMC fluorescence, no detergent; Potency, µM, without a hit: max response, negative = inhibition, actives largely listed as inhibitors; 2.3% of 200,000 active; active = well fitted curve in the direction sought with a large enough effect; inconclusive = small, poorly fitted or top-dose-only effect, or another doubt; inactive = no such curve, though single readings can be large; an effect the other way counts as inactive or inconclusive;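 also: plate controls were enzyme without inhibitor for no effect and buffer without enzyme for full effect; nearly all actives have a fitted effect of over 40% in size; top concentration of the series not given in the record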
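Purified cruzain at 1.5 nM, pre-incubated 15 min with compound at room temperature in 100 mM sodium acetate pH 5.5, 5 mM DTT, 0.00005% Triton X-100. Reaction started with 2 uM Z-FR-AMC; AMC fluorescence increase over 60 s gives rate.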
The depositor's hits bear a star; ? = inconclusive; / = not tested or not shown; & = joins results of further samples; [ ] = remark or other dose. Unless noted, calls follow the shape of the dose curve; as a rule, active means well fitted rising curve with a large enough effect; inconclusive means small, poorly fitted or top-dose-only effect; inactive means no such curve, though single readings can be large or run the other way. Potency is read from the fitted curve at half-maximal effect.

SMILES	SARS PLpro yeast	MARV entry inh	RE007 growth inh	StopGo reporter	NS1 function inh	Lassa entry inh	Cruzain Triton	Cruzain inh noDet
COC(=O)c1cc(NC(=O)c2cccnc2)ccc1N1CCOCC1	0%	23%	-6%	-5%	-2%	?	/	/
COc1cc(OC)c(NC(=O)c2csc3c2CCC(C)C3)cc1Cl (stereo unspecified)	/	-15%[46.1 µM]	/	1%	/	/	-1.9%	22%
CC1=CC(C)(C)Nc2ccc(OC(=O)C(C)N3C(=O)c4ccccc4C3=O)cc21 (stereo unspecified)	-8%	?	-8%	28µM*	30%	?	-3.9%	-23%
COc1ccc(N2CCN(C3CC(=O)NC3=O)CC2)cc1 (stereo unspecified)	-1%	-7%	3%	-17%	8%	0%	3.9%	-4%
CCCC(=O)Nc1cc(C(=O)NCc2ccc(OC)cc2)ccc1S(=O)(=O)c1ccc(Cl)cc1	/	/	/	15%	/	-21%[46.1 µM]	-4.3%	-12%
O=c1c(Cl)c(NCCCO)cnn1-c1nc2ccccc2[nH]1	-32%	?	?	10%	-211%	?	-4.7%	10%
O=C(COC(=O)COc1ccccc1[N+](=O)[O-])NCc1ccc2c(c1)OCO2	-4%	5%	14%	-16%	/	7%	/	/
Cc1ccc(C)c(S(=O)(=O)N2CCCC2CNC(=O)C(=O)NC2CCCC2)c1 (stereo unspecified)	9%	4%	6%	1%	/	-13%	/	/
C/C(=N\Nc1nc2ccccc2s1)c1ccc(Br)s1	-5%	?	-10%	?	14%	?	/	/
CCCC(C)NC(=O)c1cc(Cl)ccc1OC (stereo unspecified)	4%	-5%	-14%	1%	-11%	2%	2.0%	0%
N/C(=N\OS(=O)(=O)c1ccc(Br)cc1)c1ccncc1	-6%	13%	-1%	10%	3%	?	1.0%	-1%
O=C(N/N=C/c1ccncc1)C1CC1(c1ccccc1)c1ccccc1 (stereo unspecified)	0%	-18%	8%	2%	-8%	-4%	/	/
COc1cc(OC)c(OC)cc1CNc1sc2c(c1C(=O)Nc1ccccc1OC)CCC2	/	/	/	0%	/	-14%[46.1 µM]	-6.1%	1%
OCCN1CCN(c2ncnc3c2c(-c2ccccc2)cn3-c2ccc(F)cc2)CC1	-3%	?	19%	?	/	-5%	/	/
COC(=O)C1=C(C)OC(N)=C(C#N)C12C(=O)Nc1ccccc12 (stereo unspecified)	1%	-2%[46.1 µM]	-3%	-18%	4%	16%[46.1 µM]	/	/
Cc1cccc(Oc2nc(-c3ccncc3)nc3ccccc23)c1	-1%	?	-1%	-14%	-32%	1%	/	/
CSCCC(NC(=O)c1ccco1)C(=O)Nc1ccncc1 (stereo unspecified)	2%	-2%[46.1 µM]	-5%	14%	5%	19%[46.1 µM]	/	/
CCSc1nnc(CNC(=O)C23CC4CC(CC(C4)C2)C3)n1C1CCCCC1	-9%	17%	19%	-23%	-6%	10%	0.6%	?
CC(Nc1nc2ccccc2n2cnnc12)c1ccccc1 (stereo unspecified)	0%	-11%[46.1 µM]	0%	10%	-4%	-18%[46.1 µM]	/	/
O=C(CN1C(=O)C2C3C=CC(C3)C2C1=O)NCCc1ccccc1Cl (stereo unspecified)	3%	16%	5%	8%	-9%	-10%	1.9%	3%
CCOC(=O)c1cnc(SCc2ccccc2)nc1N	-2%	?	-6%	/	-13%	-5%	-3.9%	-5%
CC(/C=N/NC(=O)c1cc(C2CC2)[nH]n1)=C\c1ccccc1	0%	/	9%	36%[activator]	0%	/	/	/
Cc1ccc(S(=O)(=O)N2CCOCC2)cc1C(=O)OCC(=O)Nc1ccc2[nH]c(=O)[nH]c2c1	1%	?	16%	9%	/	4%	/	/
S=c1[nH]nc(-c2ccc(Cl)cc2Cl)n1-c1ccccc1	0%	/	14%	62%[activator]	4%	/	/	/
CCOC(=O)Nc1ccc2c(c1)N(C(=O)CCN1CCN(C)CC1)c1ccccc1S2	6%	?	-9%	-5%	7%	-17%	3.7%	-7%
CCC(=O)N(CCC(c1ccccc1)c1ccc2c(c1)OCO2)Cc1ccc(OC(C)C)cc1 (stereo unspecified)	/	-10%[46.1 µM]	/	-10%	/	?	-8.4%	-12%
COc1ccccc1N1CCN(/N=C/C=C\c2ccco2)CC1	-8%	?	-16%	-8%	-7%	?	-2.1%	-3%
CCOCCCNS(=O)(=O)c1ccccc1	-5%	18%	-10%	1%	-7%	3%	7.9%	4%
Cc1cc(C)cc(N2C(=O)CC(n3nc(C)cc3C)C2=O)c1 (stereo unspecified)	-11%	?	-1%	2%	2%	9%	-0.2%	0%
CCOc1ccc(NC(=S)NC23CN4CN(CN(C4)C2)C3)cc1	2%	16%[46.1 µM]	17%	7%	/	/	/	/
CCOC(=O)c1oc2ccccc2c1CN1CCN(c2ccccc2)CC1	-4%	-12%[46.1 µM]	-10%	?	-87%	?	-2.7%	0%
CCSc1sc(CC)cc1C=O	2%	8%[46.1 µM]	10%	-4%	/	-10%	/	/
CC1CCN(C(=O)c2cc(-c3cccc(Cl)c3)on2)CC1	/	?	/	38%[activator]	/	0%[46.1 µM]	-9.3%	-11%
Cc1cc(C)c2c(n1)sc1c(N3CCCCC3)ncnc12	-1%	16%[46.1 µM]	-5%	-8%	4%	-17%	/	/
Nc1c(N(CCCO)C(=O)CCCN2C(=O)c3cccc4cccc(c34)C2=O)c(=O)[nH]c(=O)n1Cc1ccccc1	/	6%	4%	-15%	/	0%	/	/
O=C(NCc1cccnc1)C(=O)C1C(=O)Nc2ccccc21 (stereo unspecified)	-1%	/	-18%	-13%	-4%	/	/	/
O=S(=O)(c1cccc(C(F)(F)F)c1)N1CCN(C(=S)NCc2ccco2)CC1	-4%	?	-1%	-6%	-7%	?	-8.3%	-10%
FC(F)(F)c1ccc(N2CCN(c3cc(-c4ccccc4)nc4ncnn34)CC2)nc1	0%	?	2%	/	-41%	?	-17%	?
COc1ccc(NS(=O)(=O)c2ccc(NC(=O)c3ccc(N(C)S(C)(=O)=O)cc3)cc2)c(OC)c1	8%	?	-7%	?	12%	?	-3.7%	4%
COc1ccc(CCNC(=O)C(=O)NCC2OCCN2S(=O)(=O)c2cccs2)cc1OC (stereo unspecified)	/	22%	10%	-27%	/	-14%	/	/
CCOC(=O)C1CCCCN1S(=O)(=O)c1csc(C(N)=O)c1 (stereo unspecified)	/	/	/	3%	/	10%[46.1 µM]	-0.2%	6%
CS(=O)(=O)N(CC(=O)O)c1cc(Cl)cc(Cl)c1	5%	-24%	11%	-11%	3%	29%	7.4%	0%
CCOC(=O)c1c(C)oc2nc(C)nc(N3CCN(c4cccc(C(F)(F)F)c4)CC3)c12	/	/	/	?	/	-14%[46.1 µM]	-1.1%	-14%
O=C(COc1ccccc1[N+](=O)[O-])Nc1cc(C(=O)O)cc(C(=O)O)c1	1%	23%[46.1 µM]	2%	-13%	/	11%[46.1 µM]	/	/
CCn1c2ccc(OC)cc2c2nc3ccccc3nc21	-17%	18%	-12%	0%	-4%	13%	-5.5%	?
O=C(NN1C(=O)/C(=C/c2cccc(O)c2)SC1=S)c1ccccc1O	-2%	/	-6%	-4%	-7%	/	/	/
CCn1c(/C=C2/C(=O)N(C)c3ccccc32)nc2ccccc2c1=O	0%	-25%	-15%	?	-36%	?	-0.2%	?
COC(=O)n1c(=O)oc2ccccc21	-3%	0%	30%	-9%	-4%	7%	3.7%	-5%
C=C(Br)Cn1c(CC(C)C)nc2ccccc21	7%	-4%	-7%	-21%	-13%	8%	3.5%	-4%
NCc1cc(=O)[nH]o1	/	?	-1%	-22%&-6%&-4%	-3%	0%	-3.1%&-3.1%	-8%&-9%
c1ccc(CCc2nn3c(Cn4nnc5ccccc54)nnc3s2)cc1	-1%	?	-6%	-6%	-121%	8%	1.1%	-9%
Cc1nnsc1C(=O)N1CCC(CO)(Cc2ccccc2Cl)CC1	0%	0%[46.1 µM]	0%	-13%	-3%	23%	/	/
CCCCOC(=O)c1cccc(NC(=O)CCC(=O)O)c1	10%	3%	21%	10%	2%	23%	4.2%	10%
CCCC1=Nc2cc(C(=O)N3CCN(c4ccccn4)CC3)ccc2Sc2ccc(C)cc21	-6%	?	-11%	-30%	0%	-10%[46.1 µM]	/	/
Cc1cc(C)c2c(N)c(-c3nc4ccccc4[nH]3)sc2n1	-14%	-30%	-21%	56%[activator]	-58%	?	-8.3%	-23%
CN1/C(=C\C(=O)COC(=O)Cn2nnc(-c3ccccc3)n2)C(C)(C)c2ccccc21	-2%	-1%	-4%	-7%	-8%	-26%	2.3%	-27%
CC(C)c1ccc(Nc2nc(CC(=O)O)cs2)cc1	1%	?	-5%	-3%	/	?	/	/
NC1=NC(=Nc2ccc(Cl)cc2)c2ccccc21	17%	21%	2%	31%[activator]	-16%	-7%	-5.2%	-1%
O=C(NCC1CCCO1)C12CN(Cc3ccccc3)CC1C(c1cccc([N+](=O)[O-])c1)=NO2 (stereo unspecified)	3%	-1%	-5%	-12%	-7%	/	-0.4%	6%
N#Cc1nc(-c2ccc(F)cc2)oc1N1CCCC1	?	?	10%	6%	7%	17%	-8.8%	-16%

Continuation.
SMILES	SARS PLpro yeast	MARV entry inh	RE007 growth inh	StopGo reporter	NS1 function inh	Lassa entry inh	Cruzain Triton	Cruzain inh noDet
COC(=O)c1ccccc1NC(=O)Cn1nnc(-c2ccc(OC)cc2)n1	2%	?	-3%	4%&-7%	3%	?	0.0%&-6.1%	-15%&-2%
O=C(COC(=O)COc1ccccc1Cl)Nc1ccccc1OC(F)F	-16%	17%	-9%	-6%	-140%	4%	1.0%	-6%
CCCC(=O)NC(=S)Nc1cccc(NC(=O)c2ccc(Cl)cc2Cl)c1	-1%	?	29%	?	8%	-6%	-12%	-4%
CCN(CC)CC(=O)c1c(N)n(Cc2ccccc2)c(=O)n(C)c1=O	0%	-17%[46.1 µM]	5%	-7%	/	25%	/	/
